Source: PubChem
ALR H2O2 inh: inhibitors of human ALR sulfhydryl oxidase, primary screen, biochemical, H2O2 detection, HRP-luminol luminescence, single point; purified ALR, DTT oxidation; inhibition, % (no concentration beside the values); 290,000 tested, 3.8% active; AID 485317, 2010;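 active = mean and each replicate at 75% or more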;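 also: stock transfer was 7.5 nL into about 7.5 µL; 0% = neutral wells and 100% = wells with inactivated enzyme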
Target sequence (P55789 whole entry, looked up): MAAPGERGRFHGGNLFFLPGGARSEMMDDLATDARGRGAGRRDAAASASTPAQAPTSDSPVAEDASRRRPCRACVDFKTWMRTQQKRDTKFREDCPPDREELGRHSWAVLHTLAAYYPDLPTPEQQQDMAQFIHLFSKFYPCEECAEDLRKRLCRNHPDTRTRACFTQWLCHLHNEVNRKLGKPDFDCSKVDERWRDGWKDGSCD
Beta2AR agonist: beta2AR agonists driving receptor internalization, primary screen, cell-based, FAP fluorogen, flow cytometry; AID 504454, 2011; 340,000 tested, 0.43% active; response, % (concentration not given with the values); Beta-2 adrenergic receptor (Homo sapiens), P07550; Am2.2-beta2AR cells; reference of the scale not given here;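 active = response above a set limit, near 3 SD of response in nonfluorescent compounds, cut at about 42% in these data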;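 also: stock transfer was 100 nL into about 11 µL; a reference agonist was the positive control; negative values mostly stem from fluorescent compounds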
HNF4A DNA FP: change in binding of human HNF4A to DNA, primary screen, biochemical, fluorescence polarization, FITC-DNA; Hepatocyte nuclear factor 4-alpha (Homo sapiens), P41235; 1 h; activity change, % at 10 µM; 360,000 tested, 0.3% active; AID 1224865, 2016; in the data active = activity change above about 30%, passing the limit was not always enough;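 also: controls were the assay level and a saturating level of protein; the project sought stronger binding though the title names inhibitors; some compounds called inactive have numbers as strong as hits; positive values seem to mean higher polarization but the record does not say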
Target sequence (P41235 whole entry, looked up): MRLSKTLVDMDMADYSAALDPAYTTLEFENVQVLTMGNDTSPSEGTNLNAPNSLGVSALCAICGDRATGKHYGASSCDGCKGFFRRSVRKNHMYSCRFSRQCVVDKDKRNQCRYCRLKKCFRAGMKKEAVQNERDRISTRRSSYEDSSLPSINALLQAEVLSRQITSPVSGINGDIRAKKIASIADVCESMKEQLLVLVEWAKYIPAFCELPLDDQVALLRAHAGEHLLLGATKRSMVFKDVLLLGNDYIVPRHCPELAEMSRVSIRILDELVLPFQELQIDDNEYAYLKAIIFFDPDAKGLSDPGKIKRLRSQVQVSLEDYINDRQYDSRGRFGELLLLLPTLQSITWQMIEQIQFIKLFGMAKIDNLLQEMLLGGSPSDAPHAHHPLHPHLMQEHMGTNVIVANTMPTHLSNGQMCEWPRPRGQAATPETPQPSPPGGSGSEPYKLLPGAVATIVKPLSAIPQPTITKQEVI
UCH37 inh: inhibitors of human UCH37 deubiquitinase, primary screen, biochemical, Ub-AMC cleavage, fluorescence; Ubiquitin carboxyl-terminal hydrolase isozyme L5 (Homo sapiens), Q9Y5K5; purified proteasome/UCH37; inhibition, % (concentration not given with the values); 330,000 tested, 0.33% active;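 active = mean of two replicates above 20%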;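 also: 0% = compound-free wells with enzyme and 100% = wells lacking proteasome; stock transfer was 100 nL into about 20 µL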
Target sequence (Q9Y5K5 whole entry, looked up): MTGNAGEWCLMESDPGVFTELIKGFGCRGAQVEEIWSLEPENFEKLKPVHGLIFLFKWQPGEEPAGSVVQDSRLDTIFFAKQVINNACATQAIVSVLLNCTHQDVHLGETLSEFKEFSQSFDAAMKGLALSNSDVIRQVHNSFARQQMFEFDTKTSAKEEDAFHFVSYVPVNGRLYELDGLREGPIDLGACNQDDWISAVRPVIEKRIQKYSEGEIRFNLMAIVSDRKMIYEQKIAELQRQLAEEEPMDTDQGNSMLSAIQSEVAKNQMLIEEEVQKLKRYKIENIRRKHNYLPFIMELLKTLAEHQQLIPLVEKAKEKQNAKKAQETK
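Reagent: Ub-AMC substrate; assay system: Proteasome-associated human UCH37 deubiquitinase; controls: no-proteasome and no-compound wells; read-out: % inhibition of Ub-AMC cleavage fluorescence; timing: 30 min preincubation with enzyme, 25 min cleavage at room temperature; signal: AMC fluorescence from Ub-AMC cleavage, excitation 355 nm, emission 460 nm; buffer or medium: Tris-HCl pH 7.4 plus ovalbumin, ATP-MgCl2, DTT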
FGF22 binding: binders of human FGF22 protein, primary screen, FGF22 synaptogenesis inhibitor project, biophysical, thermal shift, single point; Fibroblast growth factor 22 (Homo sapiens), Q9HCT0; recombinant FGF22 thermal shift, SYPRO orange fluorescence; percent of sucrose octasulfate shift, DMSO zero; calls only at 9.99 µM; 340,000 tested, 1.5% active;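 active = melting point raised past a set limit in the mean and every replicate; three in four hits are not shown here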
LANA-H2A inh: blockers of LANA interaction with H2A/H2B – biochemical, FP readout, HTS, primary screen. inhibition, % (concentration not given with the values). 320,000 tested, 0.6% active. AID 2629, 2010. cell-free LANA-H2A/H2B peptide, fluorescence polarization; in the data active = inhibition mostly above about 10%, no sharp cut-off; inactive = mostly below about 6.7%;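 also: stock transfer was 7.5 nL into about 10 µL; 0% = median of vehicle wells and 100% = median of positive control wells; one replicate is shown; the record names a cut of 25% in any replicate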
Ecoli growth: E. coli growth inhibition, primary screen, OD600 | AID 1053175, 2014 | Escherichia coli growth, 23 h; hits give low values | 330,000 tested, 0.21% active | OD600 absorbance (test concentration not listed);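 active = OD600 absorbance below the run mean of sample wells minus 3.6 SD, in any replicate, cut at about 0.56 in these data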;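 also: stock transfer was 300 nL into about 60 µL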
* marks the source's active call; other numbers are inactive results; i = inactive; . = not tested or not shown.

SMILES	ALR H2O2 inh	Beta2AR agonist	HNF4A DNA FP	UCH37 inh	FGF22 binding	LANA-H2A inh	Ecoli growth
Cc1nc2ncnn2c(N2CCN(C(=O)c3cccc(F)c3)CC2)c1C	-4	-28	-2.8	3.5	.	2.8	0.71
O=C(COc1ccc(F)cc1)Nc1nccs1	-19	4	-2.6	6.9	i	0.3	0.72
Cc1ccc(NC(=S)NC(=O)c2ccc(-c3ccccc3)cc2)c(C)c1	-6	2	-0.5	3.2	.	0.7	0.79
Cc1ccc(-c2c3c([nH]c(=S)c2C#N)CCCC3)o1	-5	4	3.2	8.1	.	-0.4	0.7
O=C(CN1CCN(c2ccc([N+](=O)[O-])cc2)CC1)Nc1nccs1	.	-7	-1.4	-8.4	.	.	0.7
COc1ccccc1Nc1ncccc1C(=O)O	59	6	-4.9	3.2	.	4.6	0.67
Cc1cc(C)c(C)c(S(=O)(=O)N2CCN(C(=S)NCC3CCCO3)CC2)c1C (centres undefined)	1	0	-3.2	4.2	i	1.7	0.68
COc1ccc(NC(=O)CCn2nc(C)cc2C)cc1	26	-1	1.4	1.8	.	-2.2	0.73
COc1cc2cccc(OC)c(=O)c2c(O)c1OC	.	-2	4.8	6.5	i	4.5	0.74
Cc1ccc(N2C(=O)CC(NNc3nc4ccccc4s3)C2=O)cc1C (centres undefined)	3	-5	3.4	5.5	.	0.6	0.7
Cc1ccc(CNC(=O)C2CCN(S(=O)(=O)c3cccs3)CC2)cc1	-3	-4	1.8	-1.2	i	-3.9	0.63
COc1ccc(C(=O)Nc2c3c(nn2C(C)(C)C)CS(=O)(=O)C3)cc1OC	-14	5	1.8	.	i	-0.5	.
C#CCn1cnc2c(oc3ccccc32)c1=O	-13	-1	-2.0	-0.6	.	5.9	0.68
Cc1ccc(-c2c[n+](Cc3ccc(Cl)cc3)c3n2CCC3)cc1	-8	2	4.7	3.3	i	-0.6	0.7
Cc1ccc(S(=O)(=O)N(CC(=O)N2CCCCC2)c2cccc(C)c2)cc1	-4	4	0.4	4.7	.	0.5	0.77
Cc1ccc(CNC(=O)CCNC(=O)c2ccco2)cc1	-4	8	-2.2	2.2	.	4.3	0.72
CCn1c2ccccc2c2cc(/C=N/n3cn[nH]c3=S)ccc21	98*	2	-0.5	.	.	2.9	.
COc1ccc(/C=N/NC(=O)CSc2ccccn2)cc1OC	-15	-7	4.3	.	i	-0.9	.
Fc1cccc(F)c1-c1nc2c(s1)CCc1onc(-c3ccc(Br)cc3)c1-2	2	2	-1.8	1.0	.	3.6	0.7
COc1cc(OC)cc(-c2nnc(Nc3nc4c(F)cccc4s3)o2)c1	-3	4	12	-112	.	1.1	0.71
CCCOc1cccc(NC(=O)c2cc(C)oc2C)c1	59	4	-1.8	3.8	.	3.9	0.77
Cc1cc(C)nc(SCCCNCc2ccc(Br)cc2)n1	0	-15	4.0	4.5	i	-5.9	0.65
Oc1ccc2ccccc2c1CNc1ccc(Br)cc1	-76	.	.	3.4	i	3.1	0.68
O=C(c1ccc(Cn2cc(Cl)cn2)cc1)N1CCN(c2ccccc2)CC1	98*	-4	0.6	1.8	.	1.6	0.65
Cc1ccc(Nc2nnc(SCC(=O)Nc3cccc(S(=O)(=O)NC4=NCCCCC4)c3)s2)cc1	.	5	1.1	4.3	i	-6.5	0.7
CS(=O)(=O)N(CC(=O)N1CCc2ccccc2C1)Cc1ccc(F)cc1	-3	-12	-0.4	5.4	i	-2.6	0.68
CCOc1ccccc1N1CCN(C(=S)NCc2ccco2)CC1	29	-6	2.3	-18	.	-1.3	0.7
COc1ccc(/C(C)=N/NC(=O)c2ccc(N(C)C)cc2)cc1	-10	3	0.9	.	.	-1.1	.
CCOC(=O)c1c(-c2ccco2)csc1NC(=O)CSc1nnc(N)s1	6	8	5.1	4.1	i	-5.5	0.73
Cc1ccc(NC(=O)C(c2ccc(Cl)cc2)N2CCOCC2)cc1 (centres undefined)	-17	48*	-3.6	0.5	.	-6.7	0.69
COc1ccc(CCNS(=O)(=O)c2cc3c4c(c2)CC(=O)N4CCC3)cc1	-1	5	1.2	-1.0	i	0.3	0.69
COc1cc(CNC2CCCCCCC2)cc(Cl)c1OC	-1	0	5.7	4.3	i	-2.9	0.64
O=C(c1ccc(F)cc1)N(c1ccccn1)C1CCCCC1	-3	1	1.3	-0.4	.	1.1	0.66
CCSc1nnc(N(CCC(=O)O)CCC(=O)O)s1	38	6	-1.1	-3.2	.	3.2	0.7
O=C(O)CSC1CC(=O)N(c2ccc(Cl)c(Cl)c2)C1=O (centres undefined)	98*	-1	-0.6	8.6	.	-0.6	0.76
COc1ccccc1CN(C)C(=O)c1ccc2c(c1)NC(=O)CS2	5	15	-2.1	1.7	.	5.3	0.75
CCOC(=O)Cn1nc(C)c(NC(=O)COc2ccc([N+](=O)[O-])cc2)c1C	-6	-4	-2.3	3.5	i	0.5	0.71
Cc1ccc(NC(=O)Cn2ccc([N+](=O)[O-])n2)cc1Cl	-17	2	-0.3	4.9	i	1.1	0.67
COc1cccc(N(CC(=O)NCCN2CCOCC2)S(=O)(=O)c2ccccc2)c1	-5	3	2.7	0.8	i	0.1	0.7
CCCCC[C@@H]1C=C(C(=O)O)[C@H](c2ccc(C)cc2)N1S(=O)(=O)c1ccc(C)cc1	.	0	0.6	3.6	i	.	0.68
Cc1nc2ccc([N+](=O)[O-])cc2c(=O)n1Cc1ccc(Cl)cc1	-4	0	0.1	4.3	i	1.6	0.68
Cc1ccc(S(=O)(=O)c2cc3c(=O)n4ccccc4nc3n(C)c2=N)cc1	-1	2	1.0	.	.	-0.5	.
Cc1[nH]n(C)c(=O)c1N=Nc1ccc(S(C)(=O)=O)cc1	-9	8	-6.7	16	i	-4.4	0.71
COC(=O)c1ccc(CNC(=O)COC(=O)CCN2C(=O)C3CC=CCC3C2=O)cc1 (centres undefined)	-6	6	2.3	-1.1	i	5.7	0.69
COc1ccc(C2(CNC(=O)Cc3ccccc3)CCCC2)cc1OC	-4	10	-1.3	2.5	.	-3.9	0.72
CC(C)[C@H](NC(=O)N1c2ccccc2NC(=O)[C@@H]1C(C)C)C(=O)N[C@H](C(=O)O)c1ccccc1	3	4	-1.0	2.6	i	0.6	0.76
O=C(Nc1ccccc1-c1nc2ccccc2s1)c1cccnc1	2	19	12	-92	i	3.6	0.7
CC(CCc1ccccc1)NC(=O)CN(C)Cc1ccc(F)cc1 (centres undefined)	-5	6	2.0	-0.1	i	-0.1	0.65

Entries listed so far that have a furan ring, fused or not, in the order listed:
SMILES	ALR H2O2 inh	Beta2AR agonist	HNF4A DNA FP	UCH37 inh	FGF22 binding	LANA-H2A inh	Ecoli growth
Cc1ccc(-c2c3c([nH]c(=S)c2C#N)CCCC3)o1	-5	4	3.2	8.1	.	-0.4	0.7
C#CCn1cnc2c(oc3ccccc32)c1=O	-13	-1	-2.0	-0.6	.	5.9	0.68
Cc1ccc(CNC(=O)CCNC(=O)c2ccco2)cc1	-4	8	-2.2	2.2	.	4.3	0.72
CCCOc1cccc(NC(=O)c2cc(C)oc2C)c1	59	4	-1.8	3.8	.	3.9	0.77
CCOc1ccccc1N1CCN(C(=S)NCc2ccco2)CC1	29	-6	2.3	-18	.	-1.3	0.7
CCOC(=O)c1c(-c2ccco2)csc1NC(=O)CSc1nnc(N)s1	6	8	5.1	4.1	i	-5.5	0.73

(list continues)
SMILES	ALR H2O2 inh	Beta2AR agonist	HNF4A DNA FP	UCH37 inh	FGF22 binding	LANA-H2A inh	Ecoli growth
CC1CCC(NC(=O)Cn2c(=O)oc3ccccc32)CC1 (centres undefined)	2	3	2.2	2.4	.	2.6	0.69
O=C1OCCC1Sc1nc2ccccc2n1Cc1ccccc1 (centres undefined)	-4	0	1.6	2.1	.	-2.8	0.73
CCOCC(=O)NCc1ccc2c(c1)cc(C)n2C	-8	6	-3.3	0.3	i	-3.2	0.77
CCc1ccc(OCC(=O)OC2CCS(=O)(=O)C2)cc1 (centres undefined)	-12	2	0.5	-2.3	i	1.2	0.71
CC(NC(=O)/C(C#N)=C/c1ccc(C(=O)O)cc1)c1ccccc1 (centres undefined)	11	-1	3.5	2.8	i	-6.0	0.68
N#CC(C#N)=C1NC2(CCCCC2)Cc2ccccc21	-8	0	0.4	1.0	i	4.0	0.67
CCOC(=O)c1ccc(NC(=O)CSc2nnc(Cc3cccs3)n2C)cc1	-7	-10	-0.5	-5.5	.	-1.9	0.75
O=C(CCNC(=O)C1CCN(S(=O)(=O)c2ccccc2)CC1)NC1CC1	-2	-1	4.9	-3.1	i	-2.0	0.68
Cn1nnnc1SCC(=O)c1ccc(Br)s1	72	4	2.4	-2.6	.	0.9	0.71
Cn1c(=O)c(C(N)=S)cn(-c2ccccc2)c1=O	2	-3	1.4	3.2	i	-4.6	0.69
Cc1nnc(SCC(=O)Nc2ccc(N(C)C)cc2)n(N)c1=O	99*	2	0.0	1.3	i	1.2	0.69
CC(c1ccccc1)N1CC(C(=O)N2CCCC(C(N)=O)C2)CC1=O (centres undefined)	-3	-4	0.6	-2.4	i	4.6	0.71
COc1ccc(-n2c(C)cc(/C=C(\C#N)C(=O)NCc3ccco3)c2C)cc1	1	-4	4.6	-4.5	i	-3.9	0.73
Cc1ccc(-c2nnc(N(C)C(=O)c3ccccn3)s2)cn1	-5	-3	1.4	0.3	.	-0.7	0.7
Cc1ccc(-n2c(Cl)c(Cl)[nH]c(=O)c2=O)cc1	28	1	0.2	7.2	.	-7.4	0.67
Cc1cccc(OCCNC(=O)CCc2ccccc2)c1	1	-7	2.8	3.7	i	-0.5	0.65
O=C(CN1C(=O)S/C(=C\C=C\c2ccccc2)C1=O)Nc1ccccc1C(=O)O	97*	-3	-3.4	.	i	0.4	.
Cc1c(NC(=O)Nc2ccc(F)cc2F)c(=O)n(-c2ccccc2)n1C	-6	-1	-2.1	4.0	i	-1.3	0.69
OC(CN1CCN(c2ccccc2F)CC1)c1ccc(F)cc1 (centres undefined)	39	1	2.8	4.3	i	4.3	0.66
CC(=O)Nc1ccc(NC(=O)CSc2nnc(NC(=O)C3CC3)s2)cc1	-1	5	-0.9	-0.4	i	6.9	0.71
CCN(CC)c1ccc(/C=N/NC(=O)Cc2cccs2)c(O)c1	.	12	3.1	.	.	1.1	.
CCc1nnc(NC(=O)CN2CCN(c3nc(-c4ccccc4)cs3)CC2)s1	.	-9	-0.5	2.4	.	-2.1	0.69
CC(=O)Nc1ccc(NC(=O)CSc2nnc(NC(=O)Cc3ccc(F)cc3)s2)cc1	-7	3	5.3	4.3	i	3.5	0.7
COc1ccc(C2=Nn3c(nnc3-c3ccccn3)SC2)cc1	.	-8	-1.6	7.1	i	0.9	0.64
O=C(CN1CCC(n2nnc3cc(F)ccc32)CC1)NNC(=O)c1ccccc1	-3	-3	1.4	1.6	i	3.5	0.67
Cn1c(=O)n(C)c2cc(S(=O)(=O)Nc3ccc(F)cc3)ccc21	-2	1	0.6	0.2	i	-1.5	0.65
CCOc1ccc2nc(NCCNC(=S)NCCCN(C)C)c(C#N)cc2c1	-13	11	-5.2	-52	i	-0.6	0.7
COc1ccc(OC(C)C(=O)Nc2ccc([N+](=O)[O-])cc2)cc1 (centres undefined)	0	5	4.7	1.2	i	-12	0.68

Only part of the results is shown; rates above refer to the full screens.
